Source: PubChem
HPGD block – qHTS Assay for Inhibitors of HPGD (15-Hydroxyprostaglandin Dehydrogenase); purified HPGD, NADH fluorescence kinetic, PGE2 substrate; 15-hydroxyprostaglandin dehydrogenase [NAD(+)] (Homo sapiens), P15428; AID 894, 2007; 150,000 tested, 4.3% active; Potency, µM, without a hit: at the highest dose activity change, negative = inhibition, actives largely listed as inhibitors; active = well fitted inhibition curve with a large enough effect (not every such curve was filed as active); inconclusive = small, poorly fitted or top-dose-only effect, or another doubt; inactive = no such curve, though single readings can be large or run the other way;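 also: top concentration of the series not given in the record; plate controls included wells without enzyme; inactives centre near -10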
Target sequence (P15428 whole entry, looked up): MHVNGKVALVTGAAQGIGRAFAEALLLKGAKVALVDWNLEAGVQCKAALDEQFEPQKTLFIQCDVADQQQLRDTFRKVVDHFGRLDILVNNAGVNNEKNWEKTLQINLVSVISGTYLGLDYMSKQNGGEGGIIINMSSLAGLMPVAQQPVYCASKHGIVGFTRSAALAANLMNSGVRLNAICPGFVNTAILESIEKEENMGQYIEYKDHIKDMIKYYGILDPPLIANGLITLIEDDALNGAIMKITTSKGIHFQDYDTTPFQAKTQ
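NADH formation kinetics: reaction with 30 uM PGE2 and 1 mM NAD+ (final), 20 nM enzyme, Tris-HCl pH 8 with Tween 20, after 15 min compound preincubation at room temperature. Fluorescence change, last versus first of five reads.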
An asterisk follows results filed as active; ? = inconclusive; & = joins results of further samples. % is scaled to controls: 0 for no effect and ±100 for the full control effect; potency is read from the fitted curve at half-maximal effect.

SMILES	HPGD block
CCOC(=O)N1CCN(C(=O)CSc2nnc(-c3ccc(C)c(C)c3)o2)CC1	-8%
O=C(CNC(=O)c1ccco1)NCC(=O)OCc1cccc(Cl)c1	3%
CCc1cccc(CC)c1NC(=S)N1CCn2cccc2C1c1cccnc1 (stereo unspecified)	-8%
Cc1ccc(S(=O)(=O)N2CCCOC2CNC(=O)C(=O)NCc2ccco2)cc1 (stereo unspecified)	0%
O=C(c1ccc2c(c1)OCO2)N(CC1CCCO1)C1(C(=O)NC2CCCC2)CCCCC1 (stereo unspecified)	-9%
COc1cccc(N2CC(C(=O)Oc3ccc4ccccc4c3)CC2=O)c1 (stereo unspecified)	-13%
CC(=O)NC(CC(=O)NCC(c1ccco1)N(C)C)c1ccccc1 (stereo unspecified)	-14%
CCNC(=O)NC(=O)C(C)Sc1nc2cc(C(=O)OC)ccc2c(=O)n1-c1ccccc1 (stereo unspecified)	-7%
CCCC(=O)Nc1c(-c2cccs2)c(=O)c2ccccc2n1C	-19%
CCCN1C(=O)c2cc(C(=O)NCc3ccc(OC)cc3)ccc2C1O (stereo unspecified)	-5%
COc1ccc(C(=O)Oc2cc(/C=N/NS(=O)(=O)c3ccccc3)ccc2OC)cc1	-22%
CCn1c(SCC(=O)NC(=O)NCc2ccco2)nc2sc(C)c(C)c2c1=O	?
Cc1cccc2cc(COC(=O)COc3ccccc3)c(=O)[nH]c12	?
O=C(O)C1CCCCC1C(=O)Nc1ccccc1C(=O)N1CCN(c2ccc(F)cc2)CC1 (stereo unspecified)	2%
CC1Cc2ccccc2N1CC(=O)NCc1ccccc1Cl (stereo unspecified)	-6%
CCOC(=O)C(CCCOc1ccccc1)C(=O)OCC	1%
COC(=O)c1ccc(NC(=O)CCNS(=O)(=O)c2cccc3nonc23)cc1	-12%
COc1ccc(OCc2cccc(C(=O)Nn3cc([N+](=O)[O-])cn3)c2)cc1	-33%
O=C(N/N=C/C=C/c1ccco1)/C(=C/c1ccccc1)NC(=O)c1ccccc1	-15%
O=C(COC(=O)/C=C/c1ccc(OC(F)F)cc1)NCc1cccs1	-18%
CC(=O)Nc1cccc(N(C)C)c1	3%
COc1ccc(N2C(=O)CC(NCc3ccc(F)cc3)C2=O)cc1 (stereo unspecified)	-11%
Cc1ccc(S(=O)(=O)C(C#N)c2nc3ccccc3nc2N2CCN(C)CC2)cc1C (stereo unspecified)	-13%
O=C(Oc1ccc2ccccc2c1)c1ccccc1	-15%
CCOC(=O)c1cnn2c1[nH]c(=O)c1ccccc12	?
c1ccc2c(c1)nc(NCCN1CCOCC1)c1nncn12	-12%
Cc1c(OCC(=O)OC(C)(C)C)ccc2c3c(c(=O)oc12)CCC3	?
CC(=O)c1cccc(NC(=O)CSc2ccc(-c3ccc4c(c3)OCO4)nn2)c1	-5%
Cc1nnsc1NC(=O)OCCCl	-18%
CCC1=C(OC(=O)N(CC)CC)N2C(=O)OC(=NCCc3c[nH]c4ccccc34)[C@]2(C)[C@H]2C1=CC[C@H]1C(=O)N(CC(=O)OC)C(=O)[C@H]12	-15%
Cc1ccc(/C=C2\OC(=O)c3ccccc32)cc1	?
CCCC(=O)OCCNc1cc(Sc2nccn2C)c2nonc2c1[N+](=O)[O-]	28µM*
COc1ccccc1N1CCN(C(=O)C2CCCO2)CC1 (stereo unspecified)	-10%
N[C@@H](CC(=O)O)C(=O)O	-2%&-2%
C/C(=N\NC(=O)c1c[nH]c2ccccc12)c1ccc(C)o1	-15%
O=C(CCCNS(=O)(=O)c1ccccc1)NCc1ccco1	-4%
COc1cc2c(cc1OC)CN(C(=O)c1ccc(S(=O)(=O)N3CCCCCC3)cc1)CC2	-1%
Cc1ccnc2nc(C(=O)OCCOc3cccc(Br)c3)nn12	-1%
O=C(Cn1c2ccccc2c(=O)c2cc([N+](=O)[O-])ccc21)Nc1ccccc1Cl	-11%
O=C(CSc1nnc(CNc2ccc(F)cc2)n1Cc1ccccc1)NCc1ccccc1	-18%
Cc1cc(OCCn2cnc3ccccc3c2=O)cc(C(C)C)c1	-14%
Cc1oc(-c2ccc(Cl)cc2)nc1CN1CCCC(C(=O)NCc2ccccn2)C1 (stereo unspecified)	-11%
COc1cc(CN2CCC(C(=O)N3CCC(C)CC3)CC2)cc(Br)c1O	-4%
COc1cc(C(=S)N2CCOCC2)cc(OC)c1OC(=O)c1cc([N+](=O)[O-])cc([N+](=O)[O-])c1	-12%
CCN1CCc2c(sc(N)c2C#N)C1	?
Cc1ccc(CS(=O)(=O)CCC(=O)NCCCN2CCCC2=O)cc1	-16%
Cc1ccc(NC(=O)c2cc(=O)c3ccccc3o2)c(C)c1	-5%
CCOC(=O)CSC1=C(C#N)C(c2ccc(C)s2)CC(=O)N1 (stereo unspecified)	-9%
C=CCN(CC=C)C(=S)NC(=O)c1ccc([N+](=O)[O-])cc1	-14%
Cc1cccc(Nc2c([N+](=O)[O-])c(=O)n(C)c3ccccc23)c1	-5%

Next section.
SMILES	HPGD block
CCOCC(=O)N1CCN(c2ccc(F)cc2)CC1	-6%
Clc1ccc(OCc2nnc(-c3ccccc3Br)o2)c(Cl)c1	?
Cc1cc(NS(=O)(=O)c2ccc(-c3ccccc3)cc2)no1	-6%
COC(=O)c1sccc1NC(=O)c1cccnc1	28µM*
COCCNC(=O)C(=O)c1cc(C)n(-c2ccc([N+](=O)[O-])cc2)c1C	?
C=CCn1c(-c2ccc([N+](=O)[O-])cc2)n[nH]c1=S	-19%
CN1CCN(c2nc(-c3cccs3)nc3ccccc23)CC1	-1%
C/C(=N\NC(=O)Cc1cccn1C)c1cccs1	-9%
O=C(OCC(=O)N1CCc2ccccc2C1)c1cccc([N+](=O)[O-])c1	4%
N#Cc1c(N)oc(-c2cccs2)c1-c1cccs1	-24%

6 compounds out of the list above, sorted by the number in HPGD block, highest first.
compound	HPGD block
O=C(OCC(=O)N1CCc2ccccc2C1)c1cccc([N+](=O)[O-])c1	4%
CN1CCN(c2nc(-c3cccs3)nc3ccccc23)CC1	-1%
CCOCC(=O)N1CCN(c2ccc(F)cc2)CC1	-6%
C/C(=N\NC(=O)Cc1cccn1C)c1cccs1	-9%
C=CCn1c(-c2ccc([N+](=O)[O-])cc2)n[nH]c1=S	-19%
N#Cc1c(N)oc(-c2cccs2)c1-c1cccs1	-24%

Further results follow.
SMILES	HPGD block
O=C(c1ccc(C(F)(F)F)cc1)N1CCC(=O)N(C(COCc2ccc(C(F)(F)F)cc2)Cc2ccccc2)CC1 (stereo unspecified)	?
CCOC(=O)c1cc2sccc2n1CC(=O)Nc1ccc(OC)cc1OC	-12%
CCCn1c(C)nc2c(NCCCCN(CC)CC)nc(C)nc21	-10%
CCc1nnc(NC(=O)CSc2nccn2-c2cccc(C)c2C)s1	-16%
O=C(CSc1nccc(=O)[nH]1)c1ccccc1Br	-23%
CCC(C)c1ccccc1NC(=O)COC(=O)c1ccc(C)c(NC(=O)c2ccco2)c1 (stereo unspecified)	?
CCc1nnc(NC(=O)CSc2nnc(CSc3nc(C)cc(C)n3)n2C)s1	-7%
COc1cccc(C2CC(c3ccc(Cl)cc3)n3nc(N)nc3N2)c1 (stereo unspecified)	-10%
O=C(Nc1ccc(Br)cc1F)C1CCCO1 (stereo unspecified)	-29%
COc1ccc(C(=O)NC(NC(=S)Nc2ccc(S(N)(=O)=O)cc2)C(Cl)(Cl)Cl)cc1 (stereo unspecified)	-20%
Cc1ccccc1NC(=O)c1cccc2nc3ccccc3nc12	-17%
COc1ccc(COc2cc(-c3cccc(OC)c3)nc3ccc(NC(=O)C(C)C)cc23)cc1	?
Cc1cccc(C(=O)O/N=C2\CCSc3ccc(C)cc32)c1	-8%
Cc1sc(-c2ccncc2)nc1OC(=O)c1cc(Cl)cc(Cl)c1	-24%
CN(C)c1nn(C(=O)Nc2cccc(C(F)(F)F)c2)cc1-c1ccccc1	-6%
O=C(Nc1ccc2oc(-c3cccc4ccccc34)nc2c1)c1ncn[nH]1	?
COc1cc(-c2nc(-c3ccc(Br)o3)no2)cc(OC)c1OC	-25%
COc1ccc(-c2nc3nc(C)c(Cc4ccccc4)c(=O)n3[nH]2)cc1	?
CC(=O)Nc1cccc2c1C(=O)N(c1ccc(C)cc1)C2=O	-2%
Cc1ccc(S(=O)(=O)NCCC(=O)N2CCN(Cc3ccccc3)CC2)cc1	-1%
O=C(C1CCCN1S(=O)(=O)c1cccc2cccnc12)N1CCN(c2ccccc2)CC1 (stereo unspecified)	-5%
COC(=O)/C(=C(/F)Sc1cc(C)c(O)c(C)c1)C(F)(F)F	-23%
CCN(CC)CC#CCC1(O)c2ccccc2-c2ccccc21	-5%
CC(C(=O)NCc1cccs1)N1C(=O)c2ccccc2C1=O (stereo unspecified)	4%
c1cc2c(cnc3cscc32)s1	?
CCC1(C)Cc2ccccc2-c2c1c(=O)n(-c1ccc(C)cc1)c1nnnn21 (stereo unspecified)	9%
CCOc1cc(/C=C2\C(=O)N(c3nc(-c4ccc(Br)cc4)cs3)N=C2c2ccccc2)ccc1O	?
Cc1ccc(NC(=O)C2CCN(S(=O)(=O)c3cccc4cccnc34)CC2)nc1	-1%
O=C(/C=C/c1ccc(S(=O)(=O)N2CCOCC2)cc1)NCc1ccccc1Cl	-11%
COc1ccc2cc(CN(CC3CCCO3)S(=O)(=O)c3ccc(C(C)=O)cc3)c(=O)[nH]c2c1 (stereo unspecified)	-12%
O=C(CSc1nc2c(c(=O)n1-c1ccc(Br)cc1)SCC2)NCC1CCCO1 (stereo unspecified)	-15%
Cc1ccc2[nH]cc(CCNC(=O)c3ccc([N+](=O)[O-])cc3)c2c1	-8%
CCOc1ccc(NS(=O)(=O)c2cc(OC)ccc2OC)cc1	-10%
CC(C)C(OC(=O)c1cc2occc2n1C)C(=O)NCc1ccc2c(c1)OCO2 (stereo unspecified)	13µM*
CC(=O)Nc1ccc2nc(-c3cccs3)[nH]c2c1	?
O=C(CSc1ccc(Cl)cc1)N1CCN(c2ccc(Cl)cc2[N+](=O)[O-])CC1	-11%
O=C(c1cnc(N2CCN(c3ncccn3)CC2)c2ccccc12)N1CCN(c2ncccn2)CC1	?
CN(C)c1nc(OCCNC(=O)COc2ccccc2Cl)nc(N(C)C)n1	-18%
O=C1C(Cc2ccc(O)cc2)NC(=S)N1c1ccccc1 (stereo unspecified)	-3%
COc1ccc(CC(=O)N2CCCC(C)C2)cc1 (stereo unspecified)	28µM*

5 of the compounds above, as a markdown table:
| structure | HPGD block |
| --- | --- |
| CC(=O)Nc1ccc2nc(-c3cccs3)[nH]c2c1 | ? |
| O=C(CSc1ccc(Cl)cc1)N1CCN(c2ccc(Cl)cc2[N+](=O)[O-])CC1 | -11% |
| O=C(c1cnc(N2CCN(c3ncccn3)CC2)c2ccccc12)N1CCN(c2ncccn2)CC1 | ? |
| CN(C)c1nc(OCCNC(=O)COc2ccccc2Cl)nc(N(C)C)n1 | -18% |
| O=C1C(Cc2ccc(O)cc2)NC(=S)N1c1ccccc1 (stereo unspecified) | -3% |

More structures
SMILES	HPGD block
O=C(CSc1ccc(-c2ccc(F)cc2)nn1)Nc1ccc2c(c1)OCCO2	-13%
CCn1ccc2cc(OC)ccc2c1=S	-15%
O=C(NCCCO)NC12CC3CC(CC(C3)C1)C2	-5%
COc1cc(C(=O)OC(C)CN2CCOCC2)cc(OC)c1OC (stereo unspecified)	-6%
Cc1ccc(-c2ccc(CCC(=O)O)n2C(C)C)cc1	-28%
COc1ccc(OCc2nc3c4c(ncn3n2)-c2ccccc2CC42CCCC2)cc1	?
Cc1ccc(NC(=O)C2CCCNC2=O)nc1 (stereo unspecified)	-13%
c1ccc(-c2ccc(-c3nc(-c4ccccn4)no3)cc2)cc1	?
CCCCc1c(C)c2cc(C)ccc2[nH]c1=O	-12%
Cc1ccc(CNc2oc(-c3ccco3)nc2S(=O)(=O)c2ccccc2)cc1	-25%
CN1/C(=C\C=Nc2cc(S(=O)(=O)N3CCOCC3)ccc2N2CCOCC2)C(C)(C)c2ccccc21	-11%
COc1ccccc1CNc1nc2nc(C)c(C)c(=O)n2[nH]1	-6%
O=C(CNS(=O)(=O)c1cccs1)N1CCCC1	-4%
Cc1ccc(/C=N/NC(=O)c2ccoc2C)s1	-14%
CCCCNCc1cc(Br)c(OCc2cccs2)c(OC)c1	-13%
CCOc1ccc(C2CC(c3ccccc3)Nc3nc(N)nn32)cc1 (stereo unspecified)	-26%
Cc1cccc(/C(N)=N/OC(=O)COc2ccccc2Cl)c1	-15%
CCOC(=O)N1CCN(C(=O)CN2C(=O)COc3ccc(C(C)(C)C)cc32)CC1	-13%
CCOC(=O)c1sc2ncn(C(CC)C(=O)OC)c(=O)c2c1C (stereo unspecified)	?
COC(=O)[C@@]1(Cc2ccccc2)C=C[C@@H](C)N1C(C)=O	-9%
CCOC(=O)c1nc2ccccc2s1	-7%
CC(=O)N1CCN(c2ccccc2NC(=O)COc2cc(C)ccc2C(C)C)CC1	-6%
COc1ccc(N2CC(C(=O)OCC(=O)c3ccccc3)CC2=O)cc1 (stereo unspecified)	-14%
COc1ccc2nc3ccccc3nc2c1NC(=O)c1ccc(Br)cc1	-15%
CCCn1nnc(NC(=O)c2ccc(Br)cc2)n1	-13%
COC(=O)c1ccc(C(NC(=O)OCc2ccccc2)/C(F)=C/[C@@H](C)C(=O)N(C)Cc2cccnc2)cc1 (stereo partly specified)	-11%

The list is partial; count on the stated rates, not on these rows.
